High-throughput results deposited in PubChem by National Center for Advancing Translational Sciences (NCATS).
miR-21 reporter: miR-21 reporter, rising signal | HeLa miR-21 FLuc reporter, luciferase, 48 h | Potency, µM (series often up to 38.3 µM), inactives show at the top dose reporter change, positive = more light | 340,000 tested, under 10 active | AID 2288; active = well fitted rising curve with a large enough effect; inconclusive = small, poorly fitted or top-dose-only effect; inactive = no such curve, though single readings can be large or run the other way;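 further: % of control where 0% means no effect; miR-21 action dims this reporter so a rising signal means less miR-21 action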
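Using DMEM plus 10% FBS, HeLa miR-21-FLuc cells are incubated with test compounds (final up to about 40uM) for 48 hours; firefly luciferase signal is then imaged following reagent-mediated lysis.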
Numbers without * were called inactive; u = inconclusive. The list is partial; the hit share may differ from the screen's.

compound	miR-21 reporter
Cc1ccc2c(=O)c(C(=O)c3ccc(F)cc3)cn(CC(=O)NCc3ccccc3)c2n1	6%
CCCCNS(=O)(=O)c1ccc(N2CCCCS2(=O)=O)cc1	6%
O=C1CC(c2ccccc2)Cc2[nH]c(=O)c(-c3nc(-c4ccc(F)cc4)cs3)cc21 (centres undefined)	21%
CCc1nn(CC(=O)NCC(C)c2ccccc2)c(=O)c2cc3c(OC)cccc3n12 (centres undefined)	-4%
CCc1ccccc1NC(=O)N1CCN(c2nnc(C)c3c(C)n(-c4ccccc4)nc23)CC1	4%
COc1ccc2c(c1)c1c(c(=O)n(-c3ccccc3C)c(=O)n1CC(=O)Nc1c(C)cccc1C)n2C	3%
COc1cc(-c2noc(CSc3nc(-c4ccccc4)cc(=O)[nH]3)n2)cc(OC)c1OC	2%
CC(=O)N1CCc2cc(Br)cc(S(=O)(=O)CCC(=O)Nc3ccc(C)cc3Cl)c21	2%
CCc1ccccc1N1C(=O)N(CC(=O)c2ccc(Cl)cc2)c2ccccc2S1(=O)=O	7%
CCc1ccc(-n2c(SCc3ccccc3Cl)nc3[nH]ncc3c2=O)cc1	-2%
Cc1ccccc1Cn1c2ccccc2c2cnn(CC(=O)NCCc3ccc(Cl)cc3)c(=O)c21	-5%
Cc1ccc(NS(=O)(=O)c2ccc3c(c2)CC(C)N3C(=O)C2CCC2)cc1Cl (centres undefined)	12%
CCCCN(CC)C(=O)CSc1nc2n[nH]c(C)c2c(=N)n1-c1cccc(Cl)c1	20%
CCOC(=O)c1[nH]c2ccccc2c1NC(=O)c1ccc(OCC)cc1	-3%
O=C(OCc1ccccc1Cl)c1ccc(-c2nnn(Cc3ccccc3)n2)cc1	-2%
O=C1C(c2cccc(Br)c2)N(CCc2ccccc2)C(=O)CN1C1CCCCC1 (centres undefined)	-2%
CCOc1ccc(CCNC(=O)Cn2c(-c3cccs3)cc3cc(F)ccc32)cc1OCC	28%
COc1ccc(OC)c(C(C)NC(=O)Cn2c(=O)cc(C)c3c(C)nn(-c4ccc(C)cc4)c32)c1 (centres undefined)	9%
CSc1ncc(C(=O)NCc2cccc(Br)c2)c(-c2ccccc2)n1	-1%
CCc1cc2c(cc3c(=O)n(CC(=O)NC(C)C)nc(CC)n32)s1	4%
CC(C)c1ccc2oc(-c3ccc(Cl)c(NC(=O)Cc4ccccc4)c3)nc2c1	-8%
CCc1ccc2oc(C(=O)Nc3cccc(Cl)c3C)cc(=O)c2c1	-1%
COc1ccc(N2CCN(C(=O)c3cc(S(=O)(=O)N4CCCCCC4)cn3C)CC2)cc1	0%
CCc1nn2c(=O)cc(COC(=O)c3ccccc3NC(=O)COc3ccc(F)cc3)nc2s1	-6%
Cc1nc2cccnc2n1C1CCN(S(=O)(=O)N(C)C)CC1	-5%
Clc1ccc(-c2nc3ccccn3c2Nc2ccc3c(c2)OCCO3)s1	-54%
O=C(COc1ccccc1Cl)OCc1cc(=O)n2nc(C3CCCCC3)sc2n1	-3%
CS(=O)(=O)/C(C#N)=C\c1cnc(S(=O)(=O)c2ccccc2)s1	u
COc1cccc([C@@H]2Nc3ccc(C(=O)O)cc3[C@@H]3C=CC[C@@H]32)c1OC	1%
CCOc1ccccc1CNC(=O)CN1C(=O)C2CCCCN2c2ccc(C(=O)N(C)C)cc21 (centres undefined)	10%
CCC(=O)N1CCc2cc(S(=O)(=O)NCCC(=O)Nc3cccc(SC)c3)ccc21	9%
Cn1c(-n2cccc2)c(-c2c(-c3ccc(F)cc3)[nH]c3c2c(=O)[nH]c(=O)n3C)c(=O)[nH]c1=O	-1%
Cc1ccccc1NC(=O)c1c(C)oc2ccc(O)c(CN3CCCC(C)C3)c12 (centres undefined)	7%
CCCCn1c(=O)n(-c2ccc(Br)cc2F)c(=O)c2c3c(sc21)CN(C(C)=O)CC3	7%
CCCN(CCC)CCCNC(=O)Cn1cnc2onc(-c3ccc(F)cc3)c2c1=O	-5%
CCCn1c(=O)c2sccc2n2c(CCCC(=O)N3CCN(c4cccc(Cl)c4)CC3)nnc12	9%
COC(=O)c1ccc(OCC(O)Cn2cnc3cc(C)c(C)cc32)cc1 (centres undefined)	5%
COc1ccc2oc(-c3ccc(C)c(NC(=O)COc4cc(C)cc(C)c4)c3)nc2c1	-27%
CCOc1ccccc1CNC(=O)CN1C(=O)c2cccnc2Oc2ccc(C)cc21	15%
COc1ccc(NC(=O)c2sc3nc(C)c(C(=O)Nc4ccc(C)cc4C)c(-c4ccccc4Cl)c3c2N)cc1	1%
N#C/C(=C\c1ccccc1)c1nc(-c2cc3cc(Br)ccc3oc2=O)cs1	-1%
COc1ccccc1NC(=O)C1=C(C)Nc2nc(SCc3cc(C)ccc3C)nn2C1c1ccccc1 (centres undefined)	0%
Cc1cccc(CNC(=O)c2ccc(N3Cc4ccccc4Oc4ncccc43)s2)c1	9%
CCOC(=O)c1cccc(NC(=O)Nc2ccc3c(c2)N(C)C(=O)c2ccccc2S3)c1	17%
Cc1cc(-c2ccc(C)c(S(=O)(=O)Nc3ccc(C)c(N(C)C)c3)c2)on1	5%
COc1ccc(CCNc2nc3cc(OC)c(OC)cc3c3nc(-c4ccccc4)nn23)cc1OC	-1%
COc1ccc(NC(=O)CSc2cn(CCNC(=O)c3c(F)cccc3F)c3ccccc23)cc1	19%
COc1ccc(CNC(=O)C2=Cc3cccc(OC)c3OC2)cc1OC	-1%
COc1ccc(CN(C(=O)Nc2cccc(OC)c2)C2CCN(C(C)=O)CC2)cc1	-2%
CCOc1ccc(NC(=O)CC2C(=O)N(c3ccc(OC)cc3)C(=O)N2CCC2=CCCCC2)cc1 (centres undefined)	-10%

Continuation:
compound	miR-21 reporter
COc1ccc(C(=O)NCc2nnc(SCC(=O)Nc3ccccc3)n2-c2ccccc2)cc1	0%
COc1ccc(CCNC(=O)CCCCn2c(=O)c3ccccc3n(CC(=O)Nc3c(C)cccc3C)c2=O)cc1OC	-6%
O=C(NCCc1ccccc1)c1cc(Nc2ccccc2)nc2ccccc12	17%
CCC(=O)Oc1c(Sc2ccc(Cl)cc2)c(C)nn1C(C)(C)C	17%
CCc1ccc(CNC(=O)C2CCN(c3nn4cc(-c5ccc(OC)cc5)nc4s3)CC2)cc1	-26%
COc1ccc(S(=O)(=O)n2nc(-c3ccco3)nc2NCc2ccc(C(C)C)cc2)cc1	-12%
O=C(NCC1CCN(Cc2cccc(Cl)c2)CC1)Nc1ccc(F)c(Cl)c1	25%
COc1cc(OC)c(NC(=O)CCn2cnc3onc(-c4ccc(F)cc4)c3c2=O)cc1Cl	2%
CCOC(=O)c1ccc(Nc2c(-c3ccc(OC)cc3)nc3nc[nH]n23)cc1	-9%
CCCS(=O)(=O)c1ncc(Cl)c(C(=O)N(Cc2ccccc2)Cc2ccco2)n1	u
COc1ccccc1N1CCN(C(CNC(=O)C(=O)NCc2ccc(C)cc2)c2cccnc2)CC1 (centres undefined)	-10%
O=C(Nc1ccc2nc(SCC(=O)N3CCOCC3)sc2c1)c1cccc(Cl)c1	u
NS(=O)(=O)c1ccc(CCNC(=O)Cn2c(=O)c3cccn3c3ccc(F)cc32)cc1	-5%
CC(C)CC(=O)Nc1cc(-c2ccccc2F)nn1-c1ccccc1	-3%
Cc1ccc(Cn2nc(C)c(NC(=O)c3cc(-c4ccc(F)cc4)on3)c2C)cc1	6%
CC(C)c1ccc(S(=O)(=O)c2nnn3c2nc(N2CCCCC2)c2sccc23)cc1	2%
CC(C)CCNS(=O)(=O)c1ccc(N2CCCCS2(=O)=O)cc1	10%
CCC(=O)Nc1ccc(S(=O)(=O)NCc2ccc3c(c2)CCN3C(=O)c2ccc(C)cc2)cc1	14%
Cc1ccc(CNC(=O)CCC(=O)N2CCSc3ccccc32)cc1	1%
COc1ccc2c(CNCc3cccs3)c(C(=O)O)n(Cc3ccc(C)cc3)c2c1	2%
Cc1ccc(-n2ncc3c(NCCCn4ccnc4)ncnc32)cc1C	-45%
C=Cc1ccc(Cn2c(=O)n(-c3ccccc3C)c(=O)c3c4c(sc32)CN(C(C)=O)CC4)cc1	-13%
CCCNC(=O)CSc1c(CCC)cnc2c1c(=O)n(C)c(=O)n2C	-1%
CCOC(=O)C1=C(CN(CC)Cc2ccccc2)NC(=O)NC1c1ccc(OC(C)C)cc1 (centres undefined)	u
COc1ccc(OC)c(NCc2cccn2-c2nnc(N3CCCCC3)s2)c1	-6%
COc1cccc(NC(=O)Cn2c(=O)n(CCCCC(=O)NCc3ccccc3Cl)c(=O)c3ccccc32)c1	-8%
Clc1ccc(CCNc2ncnc3c2c(-c2ccccc2)cn3-c2ccccc2)cc1	7%
Cc1ccc(NC(=O)NC(C)c2c(-n3cccc3)sc(C)c2C)cc1F (centres undefined)	u
COc1ccc(-c2nc(CS(=O)CC(=O)NCc3ccccc3OC)c(C)o2)cc1 (centres undefined)	-1%
CCC(=O)N1CCCc2cc(S(=O)(=O)N3CCC(C(=O)NC4CCC(C)CC4)CC3)ccc21 (centres undefined)	13%
O=C(NCCCN1CCN(c2cccc(Cl)c2)CC1)c1ccc2nc(Cc3ccccc3)oc2c1	u
O=C(c1cc(F)cc(F)c1)N1CCC(c2nc(-c3ccc(S(=O)(=O)N4CCCC4)cc3)no2)CC1	11%
Cc1ccccc1Nc1c(-c2cccc(Cl)c2)nc2ncccn12	-4%
COc1cccc(N2C(=O)CSC23C(=O)N(Cc2ccccc2F)c2ccccc23)c1 (centres undefined)	4%
O=C(Cn1cc(SCc2cccc(F)c2)c2ccccc21)N1CCOCC1	-27%
COc1ccccc1S(=O)(=O)Cc1ccc(C(=O)N2CCN(c3cc(Cl)ccc3C)CC2)o1	24%
COc1ccc(NC(=O)Cn2c(=O)n(Cc3ccccc3OC)c(=O)c3cccnc32)cc1Cl	0%
COc1cc(OC)c(OC)cc1CN1CCc2nc(Nc3ccc4c(c3)OCCO4)ncc2C1	25%
COc1ccccc1C(=O)N/C(=C\c1cn(S(=O)(=O)N(C)C)c2ccccc12)C(=O)NCCCn1ccnc1	-1%
O=C(NCCCc1nc2ccccc2n1Cc1ccc(Cl)cc1Cl)c1ccco1	14%
Cc1ccc2occ(CC(=O)N(Cc3ccc(Cl)cc3)C3CCS(=O)(=O)C3)c2c1 (centres undefined)	4%
COc1ccc(-c2[nH]c(-c3ccccc3)nc2SCC(=O)Nc2ccc3c(c2)OCO3)cc1	28%
CC(=O)Nc1nonc1-c1nnc(SCC(=O)N(C)c2ccccc2)n1C	6%
O=C(CSc1oc(-c2ccc(F)cc2)nc1S(=O)(=O)c1ccc(Cl)cc1)c1ccccc1	15%
Cc1cc(C)cc(NC(=O)CN(c2cc(C(F)(F)F)ccc2Cl)S(=O)(=O)c2ccccc2)c1	-13%
CCCN1CCN(CCCNC(=O)c2cc3c(Cl)nc4ccccc4c3s2)CC1	-11%
CCOC(=O)CN1C(=O)c2cccnc2Oc2ccccc21	0%
COc1ccccc1NC(=O)CSc1nnc(NC(=O)NC2CCCCC2)s1	-28%
CCOc1ccccc1CNC(=O)c1cc2c(=O)n(Cc3ccccc3)ccc2nc1C	27%
COc1cccc(-c2nn(C)c3sc(C(=O)NCc4ccc(OC)cc4OC)cc23)c1	21%

Three consecutive records from above:
compound	miR-21 reporter
COc1ccc(CCNc2nc3cc(OC)c(OC)cc3c3nc(-c4ccccc4)nn23)cc1OC	-1%
COc1ccc(NC(=O)CSc2cn(CCNC(=O)c3c(F)cccc3F)c3ccccc23)cc1	19%
COc1ccc(CNC(=O)C2=Cc3cccc(OC)c3OC2)cc1OC	-1%

Looked up one by one from above:
compound	miR-21 reporter
COc1cc(OC)c(OC)cc1CN1CCc2nc(Nc3ccc4c(c3)OCCO4)ncc2C1	25%
CCOC(=O)CN1C(=O)c2cccnc2Oc2ccccc21	0%
CC(=O)Nc1nonc1-c1nnc(SCC(=O)N(C)c2ccccc2)n1C	6%
O=C(NCCCc1nc2ccccc2n1Cc1ccc(Cl)cc1Cl)c1ccco1	14%
O=C(NCCCN1CCN(c2cccc(Cl)c2)CC1)c1ccc2nc(Cc3ccccc3)oc2c1	u
Cc1ccc(NC(=O)NC(C)c2c(-n3cccc3)sc(C)c2C)cc1F (centres undefined)	u

Continued:
compound	miR-21 reporter
CCN(CC)S(=O)(=O)c1ccc(C(=O)NCCSc2c(-c3ccc(OC)cc3)[nH]c3ccccc23)cc1	27%
COC(=O)c1cc(NC(=O)c2cc3sccc3n2Cc2ccc(Cl)cc2)cc(C(=O)OC)c1	5%
CCOc1ccccc1NS(=O)(=O)c1c(-c2ccc(C)cc2)csc1C(=O)OC	10%
COc1ccccc1CNc1nc2ccccc2c2nc(-c3cccc(C)c3)nn12	-28%
COc1ccc(S(=O)(=O)Nc2cccc(-c3ccc(N4CCOCC4)nn3)c2)cc1F	-33%
CCOc1ccc(NC(=O)c2oc3ccccc3c2NC(=O)Cc2cccs2)cc1	-17%
Cc1nc2nc(SCC(=O)NCc3ccccc3)nn2c(C)c1Cc1ccccc1Cl	24%
COc1ccc(NC(=O)CCCN2C(=O)CCn3nc(-c4cn(C)c5ccccc45)cc32)cc1OC	-1%
CCOC(=O)c1cc2c(=O)n3ccccc3nc2n(C)c1=NC(=O)c1c(-c2ccccc2Cl)noc1C	-3%
